NPYLR7 agonist: mosquito NPYLR7 agonism; activation, % at 10 µM; 270,000 tested, 0.15% active; AID 1259423; HEK293T NPYLR7/Galpha15, GCaMP6s calcium fluorescence; in the data active = activation above about 40%;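 also: 0% = vehicle and 100% = reference agonist at the receptor; some compounds past the cut are filed as inactive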
NPYLR7 agonist max-min: further read-out of NPYLR7 agonist, marked with its call; activation, %; measured here: Max-Min RFU normalised activation; some inactives read as strong as hits;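 span of the calcium signal over five minutes; 0% = vehicle and 100% = native peptide agonist; compound fluorescence can raise it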
* marks the source's active call; other numbers are inactive results; & = joins results of further samples. Only part of the results is shown. The share of hits here may be higher or lower than overall.

SMILES | NPYLR7 agonist | NPYLR7 agonist max-min
O=C1NCC2(CCCN(C(=O)c3ccc4c(c3)CCO4)C2)O1 (stereo not drawn) | 8 | 5
Cc1cc(C)c(NC(=O)CN2C(=O)CS/C2=C\C(=O)C(C)(C)C)c(Cl)c1 | 8 | 7
O=C(NCC(c1ccco1)S(=O)(=O)c1ccc(F)cc1)Oc1ccccc1 (stereo not drawn) | 1 | -2
O=C(c1ccc(OC(F)F)cc1)N1CCOC(COCc2cccc(C(F)(F)F)c2)C1 (stereo not drawn) | 13 | 4
O=c1oc2ccc3ccccc3c2cc1-c1csc(Nc2cccc(F)c2)n1 | -4 | -11
CCn1nnc2c(N3CCC(C)CC3)ncnc21 | 1 | -3
Cc1sc2ncnc(SCC(=O)NC(=O)C(C)(C)C)c2c1C | 12 | 12
CN1C[C@H](NC(=O)c2n[nH]c3c2CCCC3)C[C@H]1CO | 11 | 8
CCOC(=O)CC(=O)CSc1nnc(Cn2c(=O)sc3ccccc32)n1CCc1ccccc1 | 4 | 3
COc1cccc(Cl)c1-c1cc(NC2CC2)nc(N)n1 | -3 | -6
Cc1cccc(-c2noc(N3CCOCC3)c2CNCc2ccccc2)c1 | -4 | -2
CC(=O)NCCn1ccnc1-c1c(C)ccc2ncccc12 | 22 | 4
COc1ccc(C(CNS(=O)(=O)CCC2CCCO2)N2CCCC2)cc1 (stereo not drawn) | 10 | 8
COCOc1cccc(CN2CCC2(C)C(=O)NCc2cccc3ccccc23)c1 (stereo not drawn) | 8 | -1
Cc1nc2n(n1)C(=O)C(C(c1ccc(F)c(F)c1)N1CCC(O)CC1)S2 (stereo not drawn) | -7 | -12
COc1ccccc1Cn1c(C)c(C(=O)NCc2ccccc2)sc1=O | 8 | 3
O=C1CCCN1CC1CCCN(c2nc3nonc3nc2N2CCCCCC2)C1 (stereo not drawn) | 7 | 1
CCOC(=O)c1c(NC(=O)c2c(OC)cccc2OC)sc2c1CCC2 | 17 | 10
CC1(C(=O)Nc2cccc(NS(C)(=O)=O)c2)CCN1Cc1c(F)cccc1F (stereo not drawn) | 11 | 2
O=C(Nc1cccc(-c2nc3ccccc3o2)c1)c1cccc(I)c1 | 0 | -5
COc1ccc2c(c1)C(C)(Cc1cccc(C#N)c1)C(=O)N2 (stereo not drawn) | 4 | 2
CC(C)(C)OC(=O)N1N=C(c2ccc(Cl)cc2)CC1(O)C(F)(F)F (stereo not drawn) | 4 | 3
CC(C)CSc1ncnc2c1sc1nc3c(cc12)COC(C)(C)C3 | 13 | 5
Cc1cn2c3c(=O)n(CCN4CCCCC4)c(=O)n(C)c3nc2n1Cc1ccco1 | 18 | 7
O=C(O)CSCc1ccsc1 | -1 | -3
The results go on:
SMILES | NPYLR7 agonist | NPYLR7 agonist max-min
CCc1nc2ccc(C(=O)NCCCN3CCCC3=O)cn2c1N(CC)C(=O)NCCc1ccccc1 | -19 | -22
CC(C)N1C(=O)COCc2ccc(-c3cnn(C)c3)cc21 | 4 | 3
O=C(NCCNc1nc(C2CC2)nc2ccccc12)C1CCCC1 | 17 | 24
COc1cc(CN(CCC(C)C)CC(O)COC(C)(C)C)cc(OC)c1 (stereo not drawn) | 13 | 9
Cc1csc(=Nc2ccccc2F)n1Cc1ccccn1 | 9 | 6
COCCCN(Cc1c(-c2ccc(F)cc2)noc1N1CCOCC1)C(=O)c1cccs1 | 0 | 1
CC(C)(O)C#Cc1ccc(CN2CCC(c3ccncc3)CC2)cc1 | 6 | 2
Cc1ccc(=O)n(CC(=O)N2Cc3cnc(C(C)(C)C)nc3C2)n1 | 2 | -1
CCOc1ccc(CCCC(=O)N2CCCC2c2nonc2C)cc1C (stereo not drawn) | -5 | -5
COc1ccc(C2=N/C(=C\C(C)=C\c3ccccc3)C(=O)O2)cc1 | -1 | -4
COCCCN(Cc1c(-c2cccc(C)c2)noc1N1CCOCC1)C(=O)C1CC1 | -11 | -5
COc1ncccc1CN1CCCc2cc(F)ccc21 | 6 | 1
Cc1noc(-c2cccs2)c1C(=O)NCc1ccncc1 | -4 | 0
CN1C[C@@H](O)[C@]2(CCN(C(=O)OCc3ccccc3)C2)S1(=O)=O | 3 | 3
Cc1cn2c3c(=O)n(CCc4ccccc4)c(=O)n(C)c3nc2n1CC(C)C | 2 | 1
CCOC(=O)c1c(C)n(-c2ccccc2)c2ccc(OC(=O)c3ccc([N+](=O)[O-])cc3[N+](=O)[O-])cc12 | 10 | 4
O=C(NCCn1ncc2c(N3CCCC3)ncnc21)c1cc2ccccc2o1 | -2 | -3
CCOC(=O)c1cc(-c2cccc(NC(=O)c3cc(Cl)nc(Cl)c3)c2)n(-c2ccccc2OC)n1 | 11 | 7
O=C(Nc1ccc(F)cc1)N1CCN(Cc2ccccc2F)CC1 | 22 | 10
O=c1[nH]c(=S)[nH]c2c1cnn2Cc1ccc(F)cc1 | 3 | 2
CCCCC(=O)N(Cc1ccc(-c2ccccc2-c2nn[nH]n2)cc1)C(C(=O)O)C(C)C (stereo not drawn) | -21 | -33
CC1CN(c2cc(Cl)nc(SCC(=O)N3CCC(Cc4ccccc4)CC3)n2)CCN1C(=O)c1ccc(Cl)cc1 (stereo not drawn) | -2 | 8
O=C(CSc1nc2ccccc2s1)N/N=C\c1cc([N+](=O)[O-])ccc1O | -2 | -4
O=C(Nc1nccs1)c1cn(CC2CCCO2)cc2c(=O)n(-c3ccccc3)nc1-2 (stereo not drawn) | 4 | 3
CC(c1ccccn1)N(C)C(=O)CN1CCOC1=O (stereo not drawn) | -3 | -4

Structural class: those above containing a nitro group on carbon.
SMILES | NPYLR7 agonist | NPYLR7 agonist max-min
CCOC(=O)c1c(C)n(-c2ccccc2)c2ccc(OC(=O)c3ccc([N+](=O)[O-])cc3[N+](=O)[O-])cc12 | 10 | 4
O=C(CSc1nc2ccccc2s1)N/N=C\c1cc([N+](=O)[O-])ccc1O | -2 | -4

(listing goes on)
SMILES | NPYLR7 agonist | NPYLR7 agonist max-min
CNC(=O)CSc1cn(CC(=O)N2CCCCC2)c2ccccc12 | -3 | -7
Cn1ccnc1Sc1ccccc1[N+](=O)[O-] | -5 | -12
CC(=O)NNC(=S)NC1CC2CCC1C2 (stereo not drawn) | 4 | 9
O=C(c1ccc[nH]c1=O)N1CCCN(Cc2cccc3c2OCCO3)CC1 | 9 | 6
CCOc1ccc(NC(=O)NCCS(=O)(=O)c2c(C)n(Cc3ccccc3)c3ccccc23)cc1 | 2 | 9
Cc1ccc(C2c3ccccc3CCN2C(=O)C2(c3ccc(Cl)cc3)CCCC2)cc1 (stereo not drawn) | 25 | 18
COc1ccc(-c2nnc(SCc3ccccn3)o2)cc1 | 6 | 11
COc1cccc(CC2(CO)CCN(c3ccc(C(C)=O)cn3)CC2)c1 | -2 | -2
CCC(C(=O)N(Cc1cc(N)ccc1N(C)C)CC1CCCO1)c1ccccc1 (stereo not drawn) | -8 | -12
O=C(CCCn1nnnc1CN1CCOCC1)NC1CCc2ccccc21 (stereo not drawn) | -6 | -9
Cc1cc(C)c(S(=O)(=O)N2CCN(CC(=O)NC3CCCCC3)CC2)c(C)c1 | -1 | 2
Cc1ccccc1COc1cn(CC(=O)N2CCOCC2)c(CO)cc1=O | 3 | 4
COc1cc(/C=C2/SC(=S)N(CC(=O)O)C2=O)ccc1OC(=O)c1cccs1 | 0 | -7
CC1(C)CC(=O)c2sc(NC(=O)C3CCCCC3)nc2C1 | 1&1 | 3&-1
Nc1cc(=O)[nH]c(SCC(=O)NC(=O)NC2CCS(=O)(=O)C2)n1 (stereo not drawn) | 7 | 10
Cc1sc2c(c1C)CN(CC1CCCO1)CN2C(=O)c1ccco1 (stereo not drawn) | -5 | 15
Cc1nn(Cc2ccccc2Cl)c2sc(C(=O)N(CC(N)=O)c3ccccc3)cc12 | 10 | 3
CN(C)C(=O)c1ccc(Cl)cc1NC(=O)c1nc(Cl)ccc1Cl | -2 | 19
CCC(C(=O)NCc1csc(C)n1)N1Cc2ccccc2C1=O (stereo not drawn) | -3 | -5
Cn1ncc([N+](=O)[O-])c1C(=O)NCc1ccco1 | 3 | -4
CC(C)(C)NC(=O)c1cc(-c2ccccc2)n2nc(C(C)(C)C)cc2n1 | 19 | 14
CCCCOC(=O)N1CCCC(c2nn(C)c(=O)n2CC)C1 (stereo not drawn) | 4 | 2
Brc1ccc(CSc2nc3ccccc3[nH]2)cc1 | -2 | -6
CC(=O)N=c1c(C#N)cc2c(=O)n3cccc(C)c3nc2n1CC1CCCO1 (stereo not drawn) | 2 | 10
CCOC(=O)c1c(NC(=O)COC(=O)C2CC2C)sc(C)c1C (stereo not drawn) | 2 | 1
Later entries.
SMILES | NPYLR7 agonist | NPYLR7 agonist max-min
COc1ccc(-c2nc(CSCC(=O)NC3CCC(C)CC3)co2)cc1 (stereo not drawn) | -9 | -6
CNC(=O)CSc1cn(CC(=O)N2CC(C)OC(C)C2)c2ccccc12 (stereo not drawn) | -5 | -8
Cc1csc(C(C)NC(=O)c2cn(C3CCCCC3)nn2)n1 (stereo not drawn) | -2 | -4
CN(C)CCCNc1cc(C(F)(F)F)c(C#N)c2nc3ccccc3n12 | 20 | 13
CSCCn1c(C)c(C#N)c(=O)[nH]c1=O | 4 | 1
COC(=O)c1ccc(C(=O)NNc2nc3c(C)cc(C)cc3s2)cc1 | -2 | -4
C=C(CC=NNc1nc(C)cc(=O)[nH]1)CCC=C(C)C | 0 | 5
O=C(CCc1ccccc1)Nc1cccc(NC(=O)CN2CCOC2=O)c1 | 20 | 10
CCOCCNC(=O)c1cncn1-c1ccc(-c2cc(C(F)(F)F)cc(C(F)(F)F)c2)cc1 | 16 | 12
COc1ccc(N2C(=O)CSC2c2cc3c(cc2Br)OCO3)cc1 (stereo not drawn) | -3 | -10
O=C(Nc1ccc2c(c1)OCO2)c1ccc(CN2CCOCC2)cc1 | 7 | 5
CCOc1ccc(C(=O)Nc2ccc(O)c(-c3nc4cc(CC)ccc4o3)c2)cc1 | 11 | 11
COc1ccc(-c2cc(NC(=O)c3ccc(F)cc3Cl)n(-c3ccc(C)cc3)n2)cc1 | 29 | 20
COc1cccc(/C=C2/NC(=S)NC2=O)c1 | -9 | -12
CN(C)NC(=O)c1ccsc1NC(=O)c1ccc(S(=O)(=O)N(C)c2ccccc2)cc1 | -4 | -4
O=C(CSc1nc(=O)n(CCO)c2c1CCCC2)N1CCCc2ccccc21 | -5 | -15
CCc1ccc(C(=O)N(CCN2CCOCC2)CC(=O)N(Cc2ccc(F)cc2)Cc2ccco2)cc1 | -13 | -7
Cc1cc(CCCC(=O)NC2(C#N)CCSC2)c(C)s1 (stereo not drawn) | 7 | 6
Nc1nc(N2CCN(Cc3ccccc3)CC2)nc(N2CCCCC2)c1[N+](=O)[O-] | -2 | -4
O=C(OCc1ccoc1)c1ccc(Cl)cc1F | -2 | -7
Cc1cccc(C(=O)Nc2ccc(-c3c(-c4cccc(C)c4)[nH]n(-c4ccccc4)c3=O)cc2)c1 | 18 | 32
CC[C@@]1(C(=O)O)C[C@H](C(=O)NCc2ccoc2)[C@H](c2ccc(OC)cc2)N1C | 1 | -1
c1cn(CC2CCCN(Cc3cc4n(n3)CCNC4)C2)cn1 (stereo not drawn) | 7 | 3
COC(=O)C1=C(C)N(C)C(C)=C(C(=O)OC)C1c1ccsc1 | -1 | 1
CS(=O)(=O)NC(=O)C1(c2ccc(Cl)c(Cl)c2)CCC1 | 3 | 0
The listing continues:
SMILES | NPYLR7 agonist | NPYLR7 agonist max-min
Cc1cc(-c2nnc(NC(=O)CCS(=O)(=O)c3ccccc3)o2)nn1C | -7 | -12
CC(C(=O)Nc1ccc2nc(C3CCCO3)[nH]c2c1)c1ccsc1 (stereo not drawn) | 2 | 0
Cc1ccc(C2=N/C(=C\c3ccc(Br)o3)C(=O)O2)cc1 | 16 | 19
CC(C)c1cc(C(=O)Nc2ccc(S(=O)(=O)C(F)F)cc2)on1 | 5 | 4
COc1ccccc1C(NC(=O)C1CCN(CCOc2ccc(F)cc2)CC1)c1ccccn1 (stereo not drawn) | -8 | -2
Cc1cc2ncn(-c3cncnc3)c2cc1C | 1 | -1
Fc1ccc(CSc2ncnc3sc4c(c23)CCC4)cc1 | 0 | -1

Structures listed so far with a thiophene ring, fused or not:
SMILES | NPYLR7 agonist | NPYLR7 agonist max-min
Cc1sc2ncnc(SCC(=O)NC(=O)C(C)(C)C)c2c1C | 12 | 12
CCOC(=O)c1c(NC(=O)c2c(OC)cccc2OC)sc2c1CCC2 | 17 | 10
CC(C)CSc1ncnc2c1sc1nc3c(cc12)COC(C)(C)C3 | 13 | 5
O=C(O)CSCc1ccsc1 | -1 | -3
COCCCN(Cc1c(-c2ccc(F)cc2)noc1N1CCOCC1)C(=O)c1cccs1 | 0 | 1
Cc1noc(-c2cccs2)c1C(=O)NCc1ccncc1 | -4 | 0
COc1cc(/C=C2/SC(=S)N(CC(=O)O)C2=O)ccc1OC(=O)c1cccs1 | 0 | -7
Cc1sc2c(c1C)CN(CC1CCCO1)CN2C(=O)c1ccco1 (stereo not drawn) | -5 | 15
Cc1nn(Cc2ccccc2Cl)c2sc(C(=O)N(CC(N)=O)c3ccccc3)cc12 | 10 | 3
CCOC(=O)c1c(NC(=O)COC(=O)C2CC2C)sc(C)c1C (stereo not drawn) | 2 | 1
CN(C)NC(=O)c1ccsc1NC(=O)c1ccc(S(=O)(=O)N(C)c2ccccc2)cc1 | -4 | -4
Cc1cc(CCCC(=O)NC2(C#N)CCSC2)c(C)s1 (stereo not drawn) | 7 | 6
COC(=O)C1=C(C)N(C)C(C)=C(C(=O)OC)C1c1ccsc1 | -1 | 1
CC(C(=O)Nc1ccc2nc(C3CCCO3)[nH]c2c1)c1ccsc1 (stereo not drawn) | 2 | 0
Fc1ccc(CSc2ncnc3sc4c(c23)CCC4)cc1 | 0 | -1
